# NPYLR7 ag = mosquito NPYLR7 agonism; activation, % at 10 µM; AID 1259423; 0.15% of 270,000 active; HEK293T NPYLR7/Galpha15, GCaMP6s calcium fluorescence; in the data active = activation above about 40%;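 also: 0% = vehicle and 100% = reference agonist at the receptor; some compounds past the cut are filed as inactive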
# NPYLR7 ag max-min = further read-out of NPYLR7 ag, marked with its call; activation, %; measured here: Max-Min RFU normalised activation; some inactives read as strong as hits;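 span of the calcium signal over five minutes; 0% = vehicle and 100% = native peptide agonist; compound fluorescence can raise it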
# * marks the source's active call; other numbers are inactive results; & = joins results of further samples. Only part of the results is shown; count on the stated rates, not on these rows.
SMILES,NPYLR7 ag,NPYLR7 ag max-min
O=C1CSC(c2cc3c(cc2Br)OCO3)N1c1cccc(C(F)(F)F)c1 (stereo not drawn),-5,-11
Cc1cccc2c(=O)c(-c3ccccc3)c(NC(=O)c3cccs3)oc12,5,1
CCn1cc(NC(=O)c2cccc(CN3CCC(N(C)C(C)=O)C3)c2)nn1 (stereo not drawn),-8,-12
CN1CC(=O)N(CN2CCN(c3c(F)c(F)c(F)c(F)c3F)CC2)C1=O,9,13
Cc1cc(-c2nn(-c3ccccc3F)cc2CN(C)C2CCOCC2)c(C)s1,0,-2
Cc1ccc2oc(-c3cc(NC(=O)c4ccccc4Cl)ccc3O)nc2c1,-2,2
CC(C)CN1CCOC(CN2CCCC(c3ccn[nH]3)C2)C1 (stereo not drawn),-3&6,-2&7
CCOC(=O)C1(Cc2ccccc2C(F)(F)F)CCN(CCCn2cccn2)CC1,3&6,-1&12
Cn1c(-c2ccccc2)cnc1SCC(=O)Nc1ccc2c(c1)OCO2,14,6
CCCC1(C)NC(=O)N(CC(O)c2ccccc2F)C1=O (stereo not drawn),11,13
COc1cccc(-c2nnc(SCc3ccc(C(=O)O)cc3)n2-c2ccccc2OC)c1,-3,-8
Cc1nsc(NC(=O)NC2CCN(Cc3cccnc3)CC2)n1,-12,-16
COCCN(Cc1cccc(OS(=O)(=O)c2ccc(F)cc2)c1)C(=O)c1cc(OC)cc(OC)c1,2,8
CC1(C)CC(N=Cc2ccccc2)CC(C)(C)N1,8,8
CCc1nc2ccc(C(=O)NCc3ccccc3OC)cn2c1N(C)Cc1ccc(Cl)cc1,-3,-6
CN(CCc1ccccc1)CCn1ccnc1-c1nccn1C,8,6
C#CCNC(=O)CNC(=O)C1CSCN1C(=O)C1CCCC1 (stereo not drawn),8,3
O=C(c1cnn(-c2ccc(F)cc2)c1)c1ccccc1O,9,6
Cc1cc(C)c(S(=O)(=O)Nc2ccc(Nc3nc(C)cc(N4CCCC4)n3)cc2)c(C)c1,14,6
CCCc1cc(CN(C)Cc2ccoc2)[nH]n1,26,17
O=C1/C(=C/c2ccc([N+](=O)[O-])cc2)SC(=Nc2ccccc2)N1c1ccccc1,-6,-10
OCC1(CC2CCCCO2)CCN(Cc2cccnc2)CC1 (stereo not drawn),7,1
N#Cc1c(-c2cccc3ccccc23)c(C#N)c2nc3ccccc3n2c1N,-3,0
CCOC(=O)CCCC(=O)N1CCN(CC(OCc2ccc(C#N)cc2)c2cccc(OC)c2)CC1 (stereo not drawn),-5,5
CCOC(=O)CNC(=O)N1CCC2(CC1)[C@H](C(=O)N(C)c1ccccc1)[C@@H](OC)C(=O)N2C,13,24

# A section from the list above, as a working copy:
SMILES,NPYLR7 ag,NPYLR7 ag max-min
CC1(C)CC(N=Cc2ccccc2)CC(C)(C)N1,8,8
CCc1nc2ccc(C(=O)NCc3ccccc3OC)cn2c1N(C)Cc1ccc(Cl)cc1,-3,-6
CN(CCc1ccccc1)CCn1ccnc1-c1nccn1C,8,6
C#CCNC(=O)CNC(=O)C1CSCN1C(=O)C1CCCC1 (stereo not drawn),8,3

# Next part
SMILES,NPYLR7 ag,NPYLR7 ag max-min
Cn1c(=O)n(CN2CCN(S(=O)(=O)c3ccc(F)cc3)CC2)c2ccccc21,1,3
COc1ccc(N=C2SCCN2C(=O)c2cccs2)cc1,6,2
CCOC(=O)CNC(=O)CSc1ccc2nnc(-c3cccc(F)c3)n2n1,7,11
CC(C)Nc1ccc(C(=O)NC(c2ccccc2)c2ccccn2)cn1 (stereo not drawn),-3,-5
c1ccc(-c2[nH]cnc2-c2cnc3ccccc3c2)cc1,19,7
CC(=O)n1c(O)c(C2=NC(=S)NC2=O)c2ccccc21,3,13
c1ccc(CCn2ccnc2-c2ccc(-c3ccn[nH]3)s2)nc1,20,13
CC(C)(C)NC(=O)N(Cc1ccccc1OS(C)(=O)=O)C1CC1,-2,10
C=CCN(CCO)C(=O)NC1CC1C1CCCCC1 (stereo not drawn),3,0
Cc1cccc(NC(=O)CN2CCN(C(=O)c3oc4ccccc4c3C)CC2)c1C,-3,-4
Cc1ccc(C2=Nc3nnnn3C(c3ccc(N4CCCC4)c([N+](=O)[O-])c3)C2C)cc1 (stereo not drawn),-4,-5
CC(=O)Nc1nc(-c2ccc(OC(C)=O)cc2)cs1,14,21
CCOC(=O)c1c(N)sc(C(=O)N2CCc3ccccc3C2)c1C,-2,-11
CCc1ccsc1CNC(=O)CCc1ccc(OC)c(Br)c1,2,0
COc1ccc(-c2cc(C(=O)N3CCN(c4ccc(OC)cc4)CC3)n(-c3cc(C)ccc3C)n2)cc1,-3,7
O=c1cc(CSc2ccc3ccccc3c2)nc2ccc(Br)cn12,-1,-5
CC1(CC(=O)Nc2ccccc2)NC(=S)N(c2ccccc2)N1 (stereo not drawn),-9,-16
CN1C(=O)C(=Cc2cccc(O)c2)SC1=S,-14,-14
CCN(c1ccccc1)S(=O)(=O)c1ccc(C(=O)NC2=NCCS2)cc1,0,-1
COc1ccc(O)c(C=NN(C)CCN(C)N=Cc2cc(OC)ccc2O)c1,1,31
Cc1nsc(NC(=O)N2CCC(n3c(=O)[nH]c4ccccc43)CC2)n1,1,1
Cc1noc2ncc(NC(=O)c3n[nH]c4ccccc4c3=O)cc12,-7,-8
COc1ccc(NC(=O)CCc2csc(NC(=O)c3ccc[nH]c3=O)n2)cc1Cl,-9,-14
O=C(c1ccc2c(c1)OCO2)C1CCCN(C(=O)c2ccc3cc[nH]c3c2)C1 (stereo not drawn),-1,-3
O=C(CCc1cccs1)NC1CCCc2c1cnn2-c1ccccn1 (stereo not drawn),1,0

# An excerpt from above in order of heavy-atom count, descending.
SMILES,NPYLR7 ag,NPYLR7 ag max-min
Cn1c(=O)n(CN2CCN(S(=O)(=O)c3ccc(F)cc3)CC2)c2ccccc21,1,3
CCOC(=O)CNC(=O)CSc1ccc2nnc(-c3cccc(F)c3)n2n1,7,11
CC(C)(C)NC(=O)N(Cc1ccccc1OS(C)(=O)=O)C1CC1,-2,10
CCc1ccsc1CNC(=O)CCc1ccc(OC)c(Br)c1,2,0
CN1C(=O)C(=Cc2cccc(O)c2)SC1=S,-14,-14

# The listing continues:
SMILES,NPYLR7 ag,NPYLR7 ag max-min
Cc1cc(=O)n(CC2CO2)c(N)n1 (stereo not drawn),3,1
COCCN(Cc1cc(N)ccc1N(C)C)C(=O)C(C)(C)C,-9,-13
Cc1cccc(NC(=O)CSc2ncnc3c2oc2ccccc23)c1C,6,3
O=c1oc(-c2cccs2)nn1Cc1csc(C2CCCC2)n1,6,1
CC(C)c1ccc(S(=O)(=O)N2CCN(C(=O)C3COc4ccccc4C3)CC2)cc1 (stereo not drawn),3,4
CSCc1nnc(SCC(=O)NC(=O)c2ccco2)o1,16,5
COc1ccc(-n2nnnc2CNC(=O)COc2cccc3c2OC(C)(C)C3)cc1,2,3
COc1ccc(OC)c(C2CCCN2S(=O)(=O)c2cc(Cl)ccc2Cl)c1 (stereo not drawn),2,0
CCOC(=O)c1c(NC(C)=O)sc2c1CCC(I)C2=O (stereo not drawn),0,-2
O=C(CCC(=O)c1ccc(Cl)cc1)NCCc1ccc2c(c1)OCO2,5,4
CSc1nc(N)nc(SCC(N)=O)c1C#N,-6,-5
Cc1cccnc1CN1CCN(Cc2ccnc3ccccc23)CC1,6,5
CCNC(=O)OC1CN(C(=O)C(N)=O)CCC(=O)N(C)c2ccccc21 (stereo not drawn),4,14
Cc1nc2n(n1)C(=O)C(C(c1ccc(Cl)c(Cl)c1)N1CCC(C(N)=O)CC1)S2 (stereo not drawn),-6,-10
C[C@H](O)Cn1cnc(-c2ccccc2)c1-c1ccc(Cn2cccn2)cc1,1,1
CCCCCn1cc(C2CCN(S(=O)(=O)c3cccc(Cl)c3)CC2)c2ccccc21,2,4
O=C1c2c(O)cc(O)cc2O[C@H](c2ccc(O)c(O)c2)[C@@H]1O,-13,-18
C=C(C)Cn1c(=O)c2c(nc3n2CCCN3CCc2ccccc2)n(C)c1=O,-1,-3
CCn1ccnc1CN1CCC(C2(c3ccccn3)NC(=O)NC2=O)CC1 (stereo not drawn),11,10
O=C(NC(c1ccc(Cl)cc1)c1ccsc1)C1CCN(Cc2cccc(Cl)c2)CC1 (stereo not drawn),5,2
O=C(CN1C(=O)CNC1=O)N1CCOC(Cc2ccc(F)cc2)C1 (stereo not drawn),5,4
C=c1onc(-c2ccccc2)c1=c1[nH]/c(=C\C(C)=C\c2ccccc2)c(=O)o1,-1,-5
O=C(CNC(=O)Cc1ccccc1)N=Nc1c(O)n(Cc2ccc3c(c2)OCO3)c2ccccc12,9,9
CC1CCC(NC(=O)c2ccc(Cl)c(N3CCCC3=O)c2)CC1 (stereo not drawn),4,2
COCCCN(Cc1ccc(OS(C)(=O)=O)cc1)C(=O)Nc1cc(OC)cc(OC)c1,15,17

# Remaining list, next part:
SMILES,NPYLR7 ag,NPYLR7 ag max-min
CCCNC(=O)C(C)NC(=O)N1CCC(C(=O)c2ccc(C)cc2)CC1 (stereo not drawn),-2,-2
C=CCNc1nnc(Cc2ccc(OC)cc2)c(=O)[nH]1,8,4
O=C(C1CCC1)N1CCCC(OCc2ccccc2F)C1 (stereo not drawn),-7,-1
NC(=O)c1ccsc1NC(=O)Cn1cc(C(F)(F)F)cc(Cl)c1=O,1,5
COC(=O)c1ccc(C(=O)NC2CC3CCC(C2)N3Cc2ccoc2)cc1 (stereo not drawn),1,2
COc1ccc(C2Oc3ccccc3C3CC(c4ccc(Cl)cc4)=NN32)cc1 (stereo not drawn),-4,-8
CC(=O)N1CCCc2cc(S(=O)(=O)NCc3ccccc3OC(F)(F)F)ccc21,1,2
Cc1nccn1-c1cc(NCCNC(=O)Nc2ccc3c(c2)OCCO3)ncn1,4,2
O=S(=O)(c1cnc[nH]1)N1CCN(CC2CC2)c2ccccc21,6&2,4&-8
FC(F)(F)c1cccc(Nc2nc(-c3ccco3)nc3cc(Cl)ccc23)c1,-3,9
CC(=O)Nc1ccc(CN2CCC2(C)C(=O)Nc2ccc3c(c2)OCO3)cc1 (stereo not drawn),3,-1
COCCCN(Cc1c(-c2ccc(F)cc2)noc1N1CCN(C)CC1)C(=O)c1cccc(OC)c1,7,6
Cc1cc(CC(C)NC(=O)c2ccc3nc(C)[nH]c3c2)n[nH]1 (stereo not drawn),5,2
CCCCc1ccc(C(=O)Nc2ccc(N(C)C)c(C(=O)NCCc3ccccc3)c2)cc1,-4,4
O=C(Nc1ccccc1C(=O)N1CCCC1)c1ccc([N+](=O)[O-])cc1,6,3
COc1cccc2ccc(N3CCC(CO)(Cc4ccccc4)CC3)nc12,7,6
CN(Cc1ccccc1)c1cc(-c2ccccc2)nc(SCc2ccc(C(=O)NCCN3CCOCC3)cc2)n1,18,18
CC(C)C(=O)NCCCn1nc(-c2ccncc2)ccc1=O,9,2
CCOC(=O)c1c(SCC(=O)NC2CCCCC2)nc(=O)[nH]c1C,5,9
CC(C)C1(C(C)C)OC(=O)c2ccccc21,8,7
Cc1ccc(NC(=O)CNCc2noc(-c3ccc4c(c3)OCO4)n2)c(C)c1,-1,-9
CC(C)CNC(=O)c1ccc(CSc2nc(N(C)Cc3ccccc3)cc(C(F)(F)F)n2)o1,7,8
COc1ccc(C(=O)Nc2cccc(-n3nc(OC)nc3-c3ccc(Cl)c(Cl)c3)c2)cc1,10,9
C=C(C)c1c2c(cc3ccccc13)C[N+](C)(C)C2,2,16
Cc1ccc(C)c(Cn2c(C)nc3ccccc32)c1,3,3

# Next results.
SMILES,NPYLR7 ag,NPYLR7 ag max-min
COc1ccc(OCCN2CCN(C(=N)N)CC2)cc1,10,17
Cc1cc(=O)[nH]c(-n2nc(C)cc2NC(=O)c2ccccc2C)n1,13,7
Cc1c(C(=O)N2CC(c3ccncc3)C2)sc2ccccc12,-1,-3
Cc1cccc(C(C(=O)N(C)Cc2nncn2C(C)C)N(C)C)c1 (stereo not drawn),1,1
COc1cc(OC)c(C(=O)CCCN2CCCC2)c(OC)c1,-3&-4&-7,-7&-7&-13
O=C(CCC1CCCN(Cc2cnc[nH]2)C1)N1CCN(Cc2ccccc2)CC1 (stereo not drawn),0,-6
O=C1OCCCN1CCNc1ccc(-c2nc(-c3ccccc3F)no2)cn1,12,2
O=S(=O)(Nc1ccc(O)cc1)c1cc(Br)ccc1Br,-9,-13
CC(CCc1ccco1)NC(=O)c1nn(C)c(=O)c2ccccc12 (stereo not drawn),-1,-1
Cn1cnc(=N)c2[nH]cnc21,1,-5
O=C1CC(c2ccccc2)CC(O)=C1S(=O)c1ccc(Cl)cc1 (stereo not drawn),6,8
COc1ccc(S(=O)(=O)Oc2ccc(CN(CCN(C)C)C(=O)c3ccccc3F)cc2)cc1,31,30
CN(CCc1ccccc1)C1(C(=O)NCC2CCCOC2)Cc2ccccc2C1 (stereo not drawn),5,3
C=CCn1c2ccccc2c2nnc(SCc3ccc4nonc4c3)nc21,0,-6
O=C(CNCc1ccc(F)cc1)N1CC(=O)N(c2ccc(Cl)cc2)C1,-3,-6
O=C1C2C3C=CC(C3)C2C(=O)N1C1CCCCC1 (stereo not drawn),7,4
CCCCCCc1ccc(C(=O)Nc2ccc(N3CCN(c4ccccc4OC)CC3)c(C(=O)N3CCCCC3)c2)cc1,13,20
COCCCN(CC(=O)N1CCc2sccc2C1c1ccc(Cl)cc1Cl)C(=O)c1ccc(Br)cc1 (stereo not drawn),-1,0
CC(=O)OC[C@@H]1CN(Cc2ccccc2)C[C@H](n2cnc3c(N4CCOCC4)ncnc32)O1,-13,-15

# Pulled one by one from above, 7 records:
SMILES,NPYLR7 ag,NPYLR7 ag max-min
O=C1OCCCN1CCNc1ccc(-c2nc(-c3ccccc3F)no2)cn1,12,2
Cc1cc(=O)[nH]c(-n2nc(C)cc2NC(=O)c2ccccc2C)n1,13,7
C=CCn1c2ccccc2c2nnc(SCc3ccc4nonc4c3)nc21,0,-6
O=C(CCC1CCCN(Cc2cnc[nH]2)C1)N1CCN(Cc2ccccc2)CC1 (stereo not drawn),0,-6
COc1ccc(S(=O)(=O)Oc2ccc(CN(CCN(C)C)C(=O)c3ccccc3F)cc2)cc1,31,30
CC(CCc1ccco1)NC(=O)c1nn(C)c(=O)c2ccccc12 (stereo not drawn),-1,-1
O=C1CC(c2ccccc2)CC(O)=C1S(=O)c1ccc(Cl)cc1 (stereo not drawn),6,8

# Source: PubChem BioAssay (Fisher Drug Discovery Resource Center)
